Source: PubChem (several laboratories)
BJeLR viability: BJeLR cell viability loss. BJeLR (HRASV12) viability, CellTiter-Glo ATP luminescence, 48 h; reference of the scale not given here. inhibition, % (concentration not given with the values). actives 0.17% (n = 300,000);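 active = replicate mean above 50%; inconclusive = above 50% but judged a plate artefact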;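 also: 50 nL library stock added to about 25 µL; numbers are from one replicate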
Sa RN4220 lethal: kills Staphylococcus aureus RN4220 | S. aureus RN4220 growth, OD600, 16 h | inhibition, % (no concentration beside the values) | actives 0.33% (n = 330,000);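 active = z-score of -3 or lower and OD600 up to 0.18 on both plates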;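 also: plate controls were untreated cells for no effect and reference antibiotic for full effect; stock transfer was 100 nL into about 80 µL; one replicate is shown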
Mtb hypoxia rep: reduces hypoxia-regulated biosensor signal in M. tuberculosis; M. tuberculosis hypoxia-regulated fluorescent reporter, fluorescence; fluorescence inhibition, % (concentration not given with the values); actives 0.1% (n = 300,000);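 active = 35 to 45% if threefold the growth effect, above 45% if 1.5-fold the growth effect; inactive = the rest, general growth blockers included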;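 also: wells of about 50 µL received 100 nL stock; 0% = vehicle wells and 100% = reference inhibitor wells; whole bacteria with a GFP reporter of the hypoxia response; strong numbers were not always called active; many hits fall short of the cut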
Autofluor counter: flagged as autofluorescent in microsphere protease counterscreen | compound autofluorescence counterscreen, microsphere flow cytometry; hits give high values | fluorescence intensity (no concentration beside the values) | actives 3.1% (n = 360,000) | AID 624483;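 active = at least 3 SD above the mean of all compounds, about 16000 in these data; inconclusive = too few beads counted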;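 also: 100 nL of 1 mM stock went into each well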
PrP 5UTR inh: inhibition of PrP 5' UTR reporter expression. AID 488862. cell-based PrP 5' UTR mRNA reporter, plate reader. inhibition, % (no concentration beside the values). actives 0.35% (n = 340,000);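 active = every replicate at 50% or more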;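 also: 0 = median of the neutral control wells; tested in H4 reporter cells; numbers are from one replicate; inactives centre near -14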
Sa ugtP lethal: kills S. aureus RN4220 lacking UgtP; S. aureus RN4220 ugtP deletion, OD600 growth, 16 h; some inactives read as strong as hits; growth inhibition, % (test concentration not listed); actives 0.54% (n = 330,000); AID 1259309;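 active = z-score under -3 and OD600 up to 0.15 on both plates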;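 also: plate controls were untreated wells for no effect and antibiotic for full effect; wells of about 80 µL received 100 nL stock; the first replicate is given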
Mtb hypoxia rep growth: also measured in Mtb hypoxia rep; calls as there; growth inhibition, %; measured here: M. tuberculosis growth (absorbance);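 0% = vehicle and 100% = reference antibiotic; read after six days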
* marks the source's active call; other numbers are inactive results; ? = inconclusive; · = no result given; & = joins results of further samples; ! = a repeat was not active.

A first look:
SMILES	BJeLR viability	Sa RN4220 lethal	Mtb hypoxia rep	Mtb hypoxia rep growth	Autofluor counter	PrP 5UTR inh	Sa ugtP lethal
COc1ccc(Cl)cc1NC(=O)Cn1c(=O)oc2ccccc21	2	1.2	15	4	4707	-26	6
COc1ccc(C(=O)NN=Cc2ccc3cccc(OCc4ccccc4)c3n2)cc1	·	-6.9	2	11	·	·	1
CN1N=C(C=Cc2ccccc2)CCC1=O	·	6.6	12	5	·	·	-5
CC(C)(C)c1ccc(-c2ccc3c(c2)S(=O)(=O)c2ccccc2C3=O)cc1	10	-5.0	2	11	3764	-2	13
CCn1nc(NC(=O)COC)c2cc3cccc(C)c3nc21	0	3.3	-6	-5	3264	-14	6
COc1ccc(N2CCN(S(=O)(=O)c3ccc(Cl)s3)CC2)cc1	11	10	-3	-1	4408	-6	5

This part in full, repeating the preview:
SMILES	BJeLR viability	Sa RN4220 lethal	Mtb hypoxia rep	Mtb hypoxia rep growth	Autofluor counter	PrP 5UTR inh	Sa ugtP lethal
COc1ccc(Cl)cc1NC(=O)Cn1c(=O)oc2ccccc21	2	1.2	15	4	4707	-26	6
COc1ccc(C(=O)NN=Cc2ccc3cccc(OCc4ccccc4)c3n2)cc1	·	-6.9	2	11	·	·	1
CN1N=C(C=Cc2ccccc2)CCC1=O	·	6.6	12	5	·	·	-5
CC(C)(C)c1ccc(-c2ccc3c(c2)S(=O)(=O)c2ccccc2C3=O)cc1	10	-5.0	2	11	3764	-2	13
CCn1nc(NC(=O)COC)c2cc3cccc(C)c3nc21	0	3.3	-6	-5	3264	-14	6
COc1ccc(N2CCN(S(=O)(=O)c3ccc(Cl)s3)CC2)cc1	11	10	-3	-1	4408	-6	5
CCn1c(SCC(=O)N2CCCCC2)nc2c1c(=O)n(C)c(=O)n2C	1	-1.2	1	1	6118	-10	-4
NC(=O)CSc1nc2cc3c(cc2c(=O)n1CCCC(=O)NCc1ccc2c(c1)OCO2)OCO3	-6	3.6	5	3	10578	-33	-11
COc1ccc(NS(=O)(=O)c2cccc(C(=O)NNC(=O)c3cc(S(N)(=O)=O)ccc3OC)c2)cc1	1	3.2	0	-3	?	-37	2
Nc1c(C(=O)C2CC2)sc2nc(-c3cccs3)cc(C(F)(F)F)c12	2	-0.6	·	·	4416	-13	5
CC1CCN(C(=O)CCS(=O)(=O)c2cc3c(cc2Cl)NC(=O)CO3)CC1	-1	2.6	-2	-2	5364	-10	-1
CN(/N=C/c1cc(Cl)cc(Cl)c1O)c1c(Cl)cccc1[N+](=O)[O-]	-1	·	·	·	4772	-21	·
COc1c(CC=C(C)C)c(O)cc2oc(=O)c3c4ccc(O)cc4oc3c12	-8	15	·	·	5769	·	-3
O=c1cc(-c2cccc(Br)c2)oc2cccc(O)c12	-8	7.9	6	13	3593	-23	5
CC(C)(C)NC(=O)CSc1nnc(-c2ccncc2)o1	7	-4.1	-2	6	2010	-6	0
CCCCOc1ccc(N(CC(=O)NC2CCCCC2)C(=O)c2snc(C(N)=O)c2N)cc1	-10	5.3	5	5	3909	-19	-7
FC(F)(F)c1cc(C(F)(F)F)c2ccc(N3CCN(c4ccccc4)CC3)nc2n1	-1	2.2	9	1	8660	-15	-3
Cc1ccc(C(=O)/C=C/NCc2ccc(F)cc2)cc1	2	4.5	2	4	2238	-16	1
Cn1c(=O)c2c(nc(SCCN3CCOCC3)n2Cc2cccc3ccccc23)n(C)c1=O	-2	-1.7	0	7	19656*	-28	-4
Cc1cc(C=NNC(N)=O)c(C)n1-c1ccc(F)cc1	·	-3.8	10	-4	·	·	4
O=C(COC(=O)c1ccc(N2CCOCC2)c([N+](=O)[O-])c1)Nc1ccc2c(c1)OCO2	-12	4.7	3	4	2431	-59	6
O=C(O)c1ccccc1C(=O)Nc1ccccc1NC(=O)c1ccccc1C(=O)O	0	2.8	11	10	·	·	7
COc1cccc2cc(C(=O)N3CCN(c4ccc(C)cc4C)CC3)c(=O)oc12	10	-7.3	8	8	5921	-7	-4
CCC(=NNC(=O)CCC(=O)Nc1ccccc1OC)c1ccccc1	·	0.9	10	11	·	·	6
Cc1cc2cc(CN(Cc3ccco3)S(=O)(=O)c3c(C)ccc4nsnc34)c(=O)[nH]c2cc1C	-3	2.8	-1	5	20470*	5	-7

(listing goes on)
SMILES	BJeLR viability	Sa RN4220 lethal	Mtb hypoxia rep	Mtb hypoxia rep growth	Autofluor counter	PrP 5UTR inh	Sa ugtP lethal
COc1ccc(/C=C2\N=C(C)OC2=O)cc1OC	2	2.9	8	-1	3615	-6	1
Cc1ccccc1-c1nnc(SCC(=O)NC2CCS(=O)(=O)C2)n1C (stereo not drawn)	·	2.2	-1	2	3754	-9	5
CC1CCN(c2ccc3nnc(CCC(=O)Nc4cccc(F)c4)n3n2)CC1	2	5.2	18	7	4973	-15	10
CCOC(=O)c1c(NC(=O)/C=C/C(=O)O)sc(C)c1-c1ccc(Cl)cc1	-8	16	6	19	4464	-25	15
Nc1ccc(C(=O)NN=Cc2sc(N3CCOCC3)nc2-c2ccccc2)cc1	·	30	3	-1	·	·	43
O=C(O)Cn1c(=O)c2c3c(sc2n(Cc2ccccc2)c1=O)CCCC3	-2	2.8	9	5	3558	·	-9
COc1ccccc1C1=NOC(COc2ccc3c(C)cc(=O)oc3c2)C1 (stereo not drawn)	-9	3.9	1	-1	3715	39	12
CCOC(=O)COc1ccc(S(=O)(=O)NCc2cccnc2)cc1	0	2.5	13	3	10037	-18	5
O=C(CSc1nnc(C2COc3ccccc3O2)o1)N1CCCc2ccccc21 (stereo not drawn)	4	-1.2	·	·	4764	-2	2
COc1ccc(Br)cc1/C=N/n1nnnc1N	1	·	·	·	4221	-15	·
Nc1ccc(Nc2ccccc2)c(Cl)c1	-8	3.2	10	-3	8785	-13	-2
CC(CC(=O)NCc1ccccc1)=NNC(N)=S	·	-1.3	-7	-5	·	·	-4
CCOC(=O)N/N=C\C=C\c1ccc2c(c1)OCO2	-2	·	·	·	2616	-50	·
CCOC(=O)COc1ccccc1/C=C1\NC(=O)NC1=O	-5	·	·	·	4868	-18	·
O=C(COC(=O)C1CCN(S(=O)(=O)c2cccs2)CC1)Nc1ccccc1Br	-2	8.9	-2	2	2282	-30	9
O=C(COc1ccccc1)N1CCN=C1c1ccccc1	-3	1.1	2	9	10359	-28	7
O=S(=O)(c1ccc(F)cc1)N1CCN=C1SCc1cccc(F)c1	6	3.1	8	8	4930	-9	3
CC(NC(=O)c1cc(-c2cccnc2)nc2ccc(Br)cc12)C1CCCO1 (stereo not drawn)	-13	0.3	7	0	7010	-40	2
CC(Sc1nc(N)cc(=O)[nH]1)C(=O)Nc1sc2c(c1C#N)CCCC2 (stereo not drawn)	8	3.1	9	2	4020	-50	-10
Oc1cccc(/C=N/N=C/c2cccc(O)c2O)c1O	-4	·	·	·	3818	-19	·
C#CCOCCOCCOCCNc1nc(N2CCN(C(=O)CCCCCCCCCCNC(=O)C(CCSC)n3cc(CCO)nn3)CC2)nc(N2CCN(C(=O)CCCCCCCCCCNC(=O)C(CCSC)n3cc(CCO)nn3)CC2)n1 (stereo not drawn)	·	13	0	7	·	·	8
CCCCNc1nc(Cl)nc(Nc2ccc(C)cc2)n1	-8	1.7	3	0	4388	·	20
CCOC(=O)CSc1nc2cc(C(=O)OC)ccc2c(=O)n1CCN1CCOCC1	-7	5.0	16	3	?	-16	7
CSc1nc2[nH]ncc2c(=O)[nH]1	-8	·	·	·	1934	-6	·
COc1ccccc1-n1cc(-c2ccccc2)c2c(=S)nc[nH]c21	-14	0.4	7	-3	5496	0	-5

Profiles, looked up by structure. Screens in order: BJeLR viability	Sa RN4220 lethal	Mtb hypoxia rep	Mtb hypoxia rep growth	Autofluor counter	PrP 5UTR inh	Sa ugtP lethal
`CCCCNc1nc(Cl)nc(Nc2ccc(C)cc2)n1` reads -8	1.7	3	0	4388	·	20
`COc1ccc(Br)cc1/C=N/n1nnnc1N` reads 1	·	·	·	4221	-15	·

Later entries
SMILES	BJeLR viability	Sa RN4220 lethal	Mtb hypoxia rep	Mtb hypoxia rep growth	Autofluor counter	PrP 5UTR inh	Sa ugtP lethal
CC1CCN(CC(=O)Nc2ccc3c(c2)OCO3)CC1	·	-0.7	-5	0	5205	-13	1
Cc1ccc(/C=N/NC(=O)CNC(=O)COc2ccccc2)cc1	-10	·	·	·	3084	-8	·
Clc1cccc(C2=NOC(c3nnc(-c4ccccc4)o3)C2)c1 (stereo not drawn)	-3	11	13	17	2908	-11	12
COc1ccc(N(CC(=O)NC2CC3CCC2C3)S(=O)(=O)c2ccccc2)cc1Cl (stereo not drawn)	-6	-0.6	12	-1	7050	-11	10
CNC(=O)C12CC3CC(C1)CC(c1ccc(C)cc1)(C3)C2	-15	3.2	13	8	3851	-32	11
CCNC(=S)N/N=C/c1sc(N2CCCCC2)nc1-c1cccs1	6	·	·	·	2916	-76	·
COc1cc2[nH]c3c(c2cc1OC)CCN1CCCC[C@@H]31	-6	-0.1	·	·	4746	5	4
O=C(Nc1ccccc1N1CCOCC1)c1ccc([N+](=O)[O-])o1	-4	51	7	0	5924	-27	62
COc1ccccc1CN1C(=O)[C@@H]2Cc3c([nH]c4ccccc34)C(C)(C)N2C1=O	-18	·	·	·	4158	-5	·
CCC(C)(C)NC(=O)CN(C(=O)c1snc(C(N)=O)c1N)c1ccc2nc(C)sc2c1	-4	3.5	-4	3	2503	-6	1
O=C(NCCC1=CCCCC1)C(c1ccccc1)c1ccccc1	1	4.1	9	11	2458	11	11
O=C(C1CCN(S(=O)(=O)c2cccc3nsnc23)CC1)N1CCn2c1nc1ccccc12	-13	4.8	10	8	2760	-10	10
c1ccc(CNc2nc3ccccc3[nH]2)cc1	-7	3.7	0	8	10273	-55	4
Cc1cc(C)n(C(=O)c2ccc([N+](=O)[O-])cc2N)n1	2	6.8	-12	-8	3939	-50	16
CC(=O)N1CCc2cc(S(=O)(=O)CCC(=O)NCCc3ccccc3)ccc21	-7	-0.6	-10	7	5608	-8	-3
O=C(O)c1ccc(NS(=O)(=O)c2ccc(Cl)c(C(=O)Nc3ccccc3)c2)cc1	5	2.1	5	-3	3179	-10	2
COC(=O)Cc1c(C)nc2nc(-c3ccc(Cl)cc3)[nH]n2c1=O	-4	5.2	-7	5	3116	-1	2
O=C(CC1SC(=Nc2ccccc2)N(CCc2ccccn2)C1=O)Nc1ccc(F)cc1 (stereo not drawn)	-2	3.8	-1	6	2009	-8	-6
Cc1cc([N+](=O)[O-])nn1CC(=O)Nc1c(C)n(C)n(-c2ccccc2)c1=O	-10	13	11	7	4409	2	4
CC(C)(C)OC(=O)NCCc1nnc(SCc2ccc(Cl)cc2Cl)o1	1	1.6	-4	6	5926	-2	-14
CN1CCCCc2c1[nH]c1ccccc1c2=O	-2	0.5	·	·	2620	-16	-3
O=C(/C=C/c1ccc(Cl)cc1)N1CCN(Cc2ccccc2)CC1	5	0.7	12	-3	3103	7	7
COCCOC(=O)C1=C(C)Nc2nc(C)nn2C1c1ccc(F)cc1 (stereo not drawn)	-6	4.5&1.5	7&10	1&7	18889*!	-18&-3	11&-8
Cc1cccc(C)c1NC(=O)CNC(=O)CCNC(=O)c1ccco1	·	6.5	11	6	8057	-21	3
CCC(C)C(=O)Nc1ncc2c(n1)CC(c1cccs1)CC2=O (stereo not drawn)	9	4.0	-13	-2	8589	-26	-6
COc1cc(CNc2ccc(CNc3ncn[nH]3)cc2)cc(Cl)c1OCc1ccccc1	-20	3.7	-8	-5	2029	-11	-6
CSCC[C@H](NC(=O)OC(C)(C)C)C(=O)NCC1CCC(C(=O)N[C@@H](Cc2ccccc2)C(=O)O)CC1 (stereo partly drawn)	3	1.4	5	5	3356	-16	2

Some of these compounds in order of length of the SMILES, low to high:
SMILES	BJeLR viability	Sa RN4220 lethal	Mtb hypoxia rep	Mtb hypoxia rep growth	Autofluor counter	PrP 5UTR inh	Sa ugtP lethal
CN1CCCCc2c1[nH]c1ccccc1c2=O	-2	0.5	·	·	2620	-16	-3
O=C(Nc1ccccc1N1CCOCC1)c1ccc([N+](=O)[O-])o1	-4	51	7	0	5924	-27	62
COc1cc(CNc2ccc(CNc3ncn[nH]3)cc2)cc(Cl)c1OCc1ccccc1	-20	3.7	-8	-5	2029	-11	-6
O=C(O)c1ccc(NS(=O)(=O)c2ccc(Cl)c(C(=O)Nc3ccccc3)c2)cc1	5	2.1	5	-3	3179	-10	2
CCC(C)(C)NC(=O)CN(C(=O)c1snc(C(N)=O)c1N)c1ccc2nc(C)sc2c1	-4	3.5	-4	3	2503	-6	1
COc1ccccc1CN1C(=O)[C@@H]2Cc3c([nH]c4ccccc34)C(C)(C)N2C1=O	-18	·	·	·	4158	-5	·
